Vif TR-FRET: HIV-1 Vif–A3G interaction blockers – biochemical, TR-FRET, GST-Vif 1-94, biotin-A3G peptide, dose response retest, primary screen (AID 1117319); TR-FRET GST-Vif / biotin-A3G peptide binding; higher % means a stronger effect; test concentration not given here; strong numbers were not always called active; inhibition, %; hits with a dose series show IC50 in µM; 0.57% of 260,000 active;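 active = above the screen mean plus three standard deviations and confirmed in dose response; inconclusive = results disagree or hit not tested in dose response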;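 also: Vif residues 1-94 fused to GST binding biotinylated APOBEC3G peptide 110-148; 0% = full assay without inhibitor and 100% = GST in place of GST-Vif; retest series ran down from 100 µM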
Ecoli rRNA inh: inhibitors of bacterial rRNA selective over humanized ribosomes; E. coli WT GFP vs humanized-ribosome RFP mutants, fluorescence, 24 h; hits give low values; DMSO median 0, no signal -100; GFP signal change (wild-type ribosome), % (test concentration not listed); 1.6% of 350,000 active;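 active = significant combined selectivity score with lowered wild-type GFP, culture density cut under 30%, mutant RFP and density less affected; inactive = any of these conditions unmet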; also: one replicate is shown; some compounds called inactive have numbers as strong as hits
RanGTP-Imp inh: disruptors of Ran-importin-beta complex formation – biochemical, FRET, CFP-Ran, YFP-importin-beta, homogeneous, primary screen | 1.1% of 300,000 active | cell-free CFP-Ran/YFP-importin-beta FRET ratio | inhibition, % (concentration not given with the values);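 active = most replicates above 15%; inconclusive = exactly half above 15%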;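 also: 0% = DMSO wells and 100% = Ran loaded with GDP instead of GTP; wells of about 40 µL received 100 nL stock; the first replicate is given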
AF4-AF9 inh: inhibitors of human MLL-AF4/AF9 interaction | P42568 | AlphaScreen, biotin-AF4 peptide binding to FLAG-AF9 | inhibition, % at 10 µM | 0.47% of 350,000 active | AID 651704;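 active = every replicate reaching a set inhibition limit, whatever the replicate mean, cut at about 25% in these data; inconclusive = mean inhibition reaches that limit but some replicates miss it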;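 also: 0% = plate neutral control median and 100% = total signal loss; the record names both 10 and 1 µM as test concentration; the first replicate is given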
Target sequence (P42568 whole entry, looked up): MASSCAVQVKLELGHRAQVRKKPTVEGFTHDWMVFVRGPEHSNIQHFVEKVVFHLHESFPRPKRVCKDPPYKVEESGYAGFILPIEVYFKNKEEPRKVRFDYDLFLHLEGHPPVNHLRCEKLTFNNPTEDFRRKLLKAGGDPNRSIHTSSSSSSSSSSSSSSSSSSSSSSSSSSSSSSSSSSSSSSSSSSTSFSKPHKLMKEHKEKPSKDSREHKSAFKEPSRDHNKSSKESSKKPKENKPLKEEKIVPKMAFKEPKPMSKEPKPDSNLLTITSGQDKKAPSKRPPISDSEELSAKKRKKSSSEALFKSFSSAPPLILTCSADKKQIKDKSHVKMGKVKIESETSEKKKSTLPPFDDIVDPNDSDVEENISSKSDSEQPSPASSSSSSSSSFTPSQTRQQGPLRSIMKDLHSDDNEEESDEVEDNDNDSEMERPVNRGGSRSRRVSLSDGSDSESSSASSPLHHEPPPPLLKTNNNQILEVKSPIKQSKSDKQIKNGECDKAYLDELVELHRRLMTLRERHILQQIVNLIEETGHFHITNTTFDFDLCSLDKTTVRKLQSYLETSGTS
Bfl-1 A1 inh: inhibitors of the anti-apoptotic protein A1, read as caspase activation; MEF A1-2A-BIM cells, Caspase-Glo 3/7 luminescence, 3 h; percent of clofoctol response, vehicle zero; caspase activation, % (no concentration beside the values); 0.066% of 330,000 active; AID 2462;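 active = over half of replicate activation scores above 10%, or exactly half above 10 with the replicate mean above 10; inconclusive = replicate mean below 10 yet half the replicates above 10; inactive = over half of replicates below 10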;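 also: wells of about 30 µL received 50 nL stock; many hits fall short of the cut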
T cruzi inh: T. cruzi replication inhibition; T. cruzi beta-gal in NIH3T3, luminescence, 90 h; inhibition, % (no concentration beside the values); 1.4% of 300,000 active; AID 1885;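 active = mean inhibition across valid replicates above about 55%, limit read from the data; inconclusive = mean below that limit but half or more replicates reach it; inactive = mean below it, under half of replicates reach it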;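 also: signal also drops with host cell toxicity which is not excluded here; 0% = plate median of DMSO wells and 100% = zero luminescence signal; higher percent means less beta-gal luminescence so fewer parasites; stock transfer was 50 nL into about 50 µL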
Calb FLC: C. albicans growth modulation with fluconazole; C. albicans CaCi-2 (fluconazole-resistant clinical isolate) + fluconazole, Alamar Blue growth, 48 h; growth inhibition, % (concentration not given with the values); 0.57% of 300,000 active;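 active = most replicates above 75%; inconclusive = exactly half above 75%; inactive = most below 75%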;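 also: all wells also contain fluconazole at 8 µg/ml as a sub-toxic cotreatment; 0% = median of DMSO wells and 100% = median of geldanamycin control wells; wells of about 8 µL received 7.5 nL stock; the first replicate is given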
Beta apoptosis: beta cell apoptosis inhibition; INS-1E cytokine-induced death, ATP luminescence, 48 h; percent of positive-control rescue, neutral wells zero; protection from apoptosis, % (concentration not given with the values); 0.8% of 300,000 active; AID 435005;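 active = all replicates at 75% or more, or half of them and the mean; inconclusive = half reach 75% but not the mean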;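 also: 0% = cytokine-treated negative control wells and 100% = positive control rescue; higher means more ATP so stronger rescue from cytokine killing; wells of about 40 µL received 100 nL stock; the first replicate is given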
Ecoli rRNA inh OD600: also measured in Ecoli rRNA inh; calls as there; OD600 change, %; measured here: OD600 growth;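 optical density of the mix in the first replicate; 0 = DMSO median and -100 = no signal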
Ecoli rRNA inh RFP: recorded beside Ecoli rRNA inh, whose call it bears; RFP signal change, %; measured here: RFP humanized mutant strains;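 first replicate; 0 = DMSO median and -100 = no signal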
Starred values were filed as active, the others as inactive; ? = inconclusive; . = no result given. These rows are one share of the data; the hit share may differ from the screen's.

Every second line gives: Vif TR-FRET | Ecoli rRNA inh | Ecoli rRNA inh OD600 | Ecoli rRNA inh RFP | RanGTP-Imp inh | AF4-AF9 inh | Bfl-1 A1 inh | T cruzi inh | Calb FLC | Beta apoptosis
O=C1CCCC2=C1C(O)(C(F)(F)F)C(=O)N2Cc1ccccc1 (stereo not given)
  69% | . | . | . | 1.3 | . | 0.5 | 41 | ? | 2
Clc1ccccc1OCc1nn[nH]n1
  -1% | -4 | -7 | -0.5 | 0.6 | 4.0 | -0.5 | -11 | -6 | .
Cc1nc2ccc(S(=O)(=O)Nc3cccc(-c4nc5cccnc5s4)c3)cc2s1
  . | 2 | -15 | 0.6 | 0.9 | -1.4 | -0.5 | -10 | 0 | 33
O=C(c1cccc(-c2ccccc2F)c1)N1CC[C@@H](N2CCC(O)CC2)[C@H](O)C1
  -16% | 5 | 10 | 1.5 | ? | -0.9 | -0.3 | -10 | -6 | .
COc1ccc(S(=O)(=O)N2CCCCCC2)cc1C(=O)N(C)Cc1c(F)cccc1Cl
  14% | -27 | -63 | 3.8 | . | 1.4 | -0.5 | . | . | -3
CCOCC(=O)Nc1ccc(F)c(F)c1
  ? | . | . | . | -1.6 | . | 0.8 | -11 | -10 | -3
CC(=O)c1ccc(NC(=O)/C(C#N)=C/c2ccncc2)cc1
  2% | 6 | 2 | 0.7 | -0.4 | 0.9 | 0.4 | -10 | -4 | -3
COc1cc(C(=O)Nc2ccc(C)cc2C(NCC(=O)NN)c2ccccc2)cc(OC)c1OC (stereo not given)
  -5% | 2 | 3 | 1.4 | -3.3 | 0.8 | 0.5 | 6 | 6 | -1
Cc1ccc(C)c(N2C(=O)CN=C2Nc2ccccc2Cl)c1
  1% | . | . | . | ? | . | -0.5 | 3 | -5 | -3
COc1ccc(/C=N\NS(=O)(=O)c2ccc(C)cc2)cc1COc1ccccc1[N+](=O)[O-]
  5% | . | . | . | 0.8 | . | -0.7 | 48 | -12 | 2
O=C(CCc1nnc(CCCCc2ccccc2)o1)NCCC1CCCCO1 (stereo not given)
  0% | 5 | -7 | 3.9 | 0.9 | 0.6 | 0.7 | -3 | -4 | -8
Cc1ccc(-c2ccc(/C=C3\C(=O)ON=C3c3ccccc3)o2)c([N+](=O)[O-])c1
  ? | . | . | . | -3.7 | . | 1.3 | -12 | -8 | 92*
COc1ccc(SC[C@H](Cc2ccccc2)N2CC[C@@H](NC(=O)OCc3ccccc3)CCC2=O)cc1
  . | 4 | -1 | 5.3 | . | -0.3 | 1.3 | . | . | 13
COc1ccc(CSc2nnnn2C)cc1F
  0% | . | . | . | 1.3 | . | 1.0 | -9 | -3 | -1
COCCCNS(=O)(=O)c1ccc(Oc2ncc(C(F)(F)F)cc2Cl)cc1
  -1% | . | . | . | ? | . | 0.3 | 7 | -3 | 1
Cc1nn(C)c(Oc2ccc(Cl)cc2)c1C(=O)Nc1ccc(F)cc1F
  -1% | 14 | 16 | -1.0 | 5.4 | 6.0 | 1.1 | 8 | -34 | 10
CCc1nnc(NC(=O)c2cc(S(=O)(=O)N(C)c3ccc(OC)cc3)ccc2Cl)s1
  -3% | -11 | -18 | -1.0 | ? | -1.9 | -0.2 | 7 | 37 | -8
CC1CCCC(NC(=O)COC(=O)CCSc2ccccc2)C1C (stereo not given)
  9% | 19 | 16 | 2.7 | 1.6 | -3.0 | -0.2 | -14 | 10 | -4
COc1ccc(NS(=O)(=O)c2ccc3c(c2)N(C(C)=O)CCO3)c(OC)c1
  . | 4 | -2 | -2.2 | 2.5 | 2.2 | -1.0 | 6 | -7 | -3
Cc1noc(C)c1C(=O)Nc1ccc(F)c(F)c1
  2% | . | . | . | 3.4 | . | 0.3 | -27 | 19 | 0
CCOc1c2ccc(C(=O)N[C@H](C)C3CCCCC3)cc2nn1CCOC
  3% | 0 | 2 | 1.7 | -1.0 | 1.2 | 0.9 | -11 | 1 | -4
COc1ccc(/C=C(\NC(=O)c2ccc(C)cc2)C(=O)NCCN2CCOCC2)cc1
  . | 9 | 8 | 0.3 | ? | -4.8 | -0.5 | 0 | -1 | -5
COC(=O)c1[nH]c2c(c1C)C(=O)CC(c1ccc(OC)cc1)C2 (stereo not given)
  -3% | -2 | 2 | 0.6 | 2.4 | -2.3 | -0.6 | -13 | -1 | -2
CCc1nnc(NC(=O)CSc2nc(C)nc3c2c(=O)n(C)c(=O)n3C)s1
  . | 24 | 20 | 2.6 | 0.6 | -1.6 | 0.2 | -8 | 0 | -1
O=C1CN(C(=O)/C=C/c2ccco2)c2ccccc2N1
  ? | 8 | 5 | 6.9 | -0.7 | -3.2 | 0.6 | -3 | 0 | 3
CC(NC(=O)CN(C)CC(=O)Nc1cccc(F)c1)c1ccccc1 (stereo not given)
  . | 8 | 5 | 1.9 | . | 0.0 | 2.0 | . | . | -1
CC(CN1CCCCC1)OC(=O)Cc1ccc(Cl)cc1 (stereo not given)
  18% | . | . | . | -6.1 | . | 0.0 | -4 | -1 | -2
Cc1csc(=NC(=O)c2ccccc2)n1CCO
  -6% | . | . | . | 5.5 | . | 0.8 | -9 | -5 | -3
CC1=C([N+](=O)[O-])C(c2ccc(Cl)cc2)NC(=O)N1 (stereo not given)
  . | -12 | -6 | 8.5 | -2.6 | -0.3 | -0.1 | 4 | -1 | .
COc1cc(NC(=S)NC(=O)c2cc(C)cc(C)c2)ccc1NC(=O)c1cccs1
  3% | . | . | . | -4.0 | . | -0.1 | 35 | 1 | 22
CC(=O)Oc1ccc(C(=O)Nc2ccccc2C(=O)Nc2ccc(C(=O)O)cc2)cc1
  . | 6 | -2 | 0.1 | 1.7 | -6.8 | -0.3 | -3 | -6 | -4
Cc1ccc(CN2CCN(/N=C/c3cc([N+](=O)[O-])ccc3Cl)CC2)cc1
  -5% | . | . | . | 11 | . | -0.2 | 27 | -10 | -4
COC(=O)c1nc(N)sc1-c1ccc(Cl)c(Cl)c1
  -15% | 2 | 1 | -8.8 | -1.9 | -4.4 | -1.1 | -1 | 1 | -7
CC(=O)N1C(=S)NC(=O)/C1=C1/C(=O)N(CC(=O)Nc2cccc(C)c2)c2ccccc21
  ? | 2 | 1 | 0.2 | 6.3 | 1.6 | 0.0 | 2 | 35 | -1
Cc1ccc(Cn2nnc3c(=O)[nH]c(C4CCCN(S(=O)(=O)c5ccccc5)C4)nc32)cc1 (stereo not given)
  3% | -18 | -17 | 4.3 | -0.2 | . | 0.6 | 0 | 18 | 4
Cc1ccc(NC(=O)CN(C)C(=O)c2ccc(NS(=O)(=O)c3cccc([N+](=O)[O-])c3)cc2)cc1
  . | -3 | 6 | -2.3 | . | -0.4 | 0.2 | . | . | -1
Cc1cc(NS(=O)(=O)c2ccc(C(C)C)cc2)no1
  . | 5 | -4 | -1.7 | 4.1 | -0.2 | -0.9 | -11 | 22 | -4
CCC(C)NC(=O)c1ccc(CSc2nc3ccncc3n2Cc2ccc(F)cc2)cc1 (stereo not given)
  4% | 2 | -5 | 20 | 1.0 | 0.5 | 0.4 | -6 | -1 | 3
Cc1cc(NC(=O)CN2CCN(S(=O)(=O)c3ccc(Cl)cc3)CC2)no1
  1% | . | . | . | -3.0 | . | -0.3 | -7 | 39 | -1
C/C(=N\NC(=O)Cc1ccc([N+](=O)[O-])cc1)c1cccnc1
  2% | 16 | 10 | -1.4 | -3.0 | -2.6 | 0.5 | 2 | 8 | -5
COc1ccccc1N(CC(=O)N1CCN(c2ccc(F)cc2)CC1)S(=O)(=O)c1ccc(C)cc1
  -8% | 5 | 9 | 0.3 | 0.6 | -2.1 | 0.3 | 11 | 1 | .
CN1C(=O)N(C)C2C1NC(=O)N2C (stereo not given)
  -7% | . | . | . | 5.4 | . | 1.4 | -16 | -3 | -10
CCOc1ccccc1NC(=O)Nc1ccc(Br)cn1
  ? | 12 | 7 | 1.4 | 2.1 | -1.7 | -0.1 | -9 | -6 | -4
COc1ccc(C(=O)NCC(=O)NCC(=O)OCc2ccc(Cl)cc2)cc1
  3% | 1 | 14 | -2.4 | 2.9 | -1.7 | -1.8 | -12 | -10 | -8
Cc1cc(NC(=O)c2ccco2)ccc1NC(=O)Cc1cccs1
  -19% | . | . | . | 0.7 | . | -0.5 | -1 | -21 | -1
CCSc1nnc(NC(=O)c2cc(-c3ccc(C)c(C)c3O)n[nH]2)s1
  12% | -3 | -8 | -0.2 | 0.1 | -1.8 | . | -8 | 1 | .
CC(C)NC(=S)N1CCn2c(nc3ccccc32)C1
  0% | -7 | -8 | -5.7 | -1.2 | 0.5 | 0.4 | 1 | 9 | -3
Cc1nnc(SC2CC(=O)N(c3ccccc3)C2=O)s1 (stereo not given)
  5% | . | . | . | 4.7 | . | 0.6 | -2 | 0 | -13
O=C(OCCCN=C1NS(=O)(=O)c2ccccc21)c1cccs1
  2% | 10 | 10 | 0.6 | -1.8 | -2.4 | 0.8 | -3 | -14 | -8
CC(C)C(=O)Nc1ccc(N2CCN(S(C)(=O)=O)CC2)cc1
  2% | . | . | . | 5.4 | . | 0.7 | -8 | -10 | 11
COc1cccc(C2=CC(=O)C[C@H](c3ccc(F)cc3)C2)c1
  . | -17 | -29 | -14 | . | 2.8 | 0.2 | . | . | -2
O=C(CCCCCBr)N1CCC(CC2CC(c3ccc(Cl)cc3)=NO2)(C(=O)NCC2CCCCC2)CC1 (stereo not given)
  . | -14 | -28 | 17 | ? | -45 | 0.6 | -7 | -6 | -10
CCOC(=O)Cc1cc(OC)c(OC)cc1Cc1cc(OC)c(OC)cc1CC(=O)OCC
  -2% | . | . | . | -2.3 | . | 0.4 | 18 | -6 | -2
CCCNC(=O)C(Cc1ccccc1F)NC(=O)c1ccccn1 (stereo not given)
  . | 2 | 14 | 0.3 | . | 0.9 | 3.9 | . | . | -6
CCOc1ccc(N2CC(C(=O)NCCN3C(=O)S/C(=C\c4cccnc4)C3=O)CC2=O)cc1 (stereo not given)
  . | 2 | 3 | -1.2 | 0.4 | 9.1 | -0.8 | -8 | 10 | -4
O=C(O)c1cc2ccccc2c2cc(Br)ccc12
  -34% | -7 | -14 | 3.9 | 2.1 | -2.4 | -1.4 | -3 | 2 | -7

Screening data: PubChem BioAssay, several laboratories
